# Prx2 Sm inh = Schistosoma Mansoni Peroxiredoxins (Prx2) | S. mansoni Prx2 activity coupled to TGR/GSH (TGR is thioredoxin glutathione reductase), NADPH fluorescence loss, qHTS; some inactives read as strong as hits | Potency, µM | actives 0.07% (n = 65,000); active means full or partial inhibition curve with a strong effect at the top dose; inconclusive means weaker partial or single-point curve; inactive means no accepted curve; also: series up to 57 µM; many of its hits are not listed in these tables
#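 Prx2 activity was followed as the loss of NADPH fluorescence (ex 365/em 450 nm), read every 30 sec for 8 min after H2O2 start. The enzyme mix (50 nM Prx2, 25 nM TGR, GSH, NADPH; pH 7.4 phosphate buffer) was incubated with compound for 15 min at room temperature first.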
# Anthrax LT inh = qHTS Assay for Anthrax Lethal Toxin Internalization | Cells, anthrax lethal toxin internalization, FRET ratio (460/530) | Potency, µM (highest dose often 40 µM), without a hit: top-dose activity change, negative = inhibition, hits mostly inhibitors | actives 0.67% (n = 70,000); active = well fitted falling ratio curve with the 530 nm signal flat; inconclusive = other ratio curves, or a change in one channel alone; inactive = flat curves in the ratio and both channels; the % refers to the ratio; also: % is scaled to controls: 0 for no effect and ±100 for the full control effect; nearly all actives have a fitted effect of over 50% in size; tested in ME-180 cells; beta-lactamase reporter
# An asterisk follows results filed as active; u = inconclusive; x = not tested or not shown; & = joins results of further samples; [ ] = remark or other dose. Potency is read from the fitted curve at half-maximal effect. A portion of the library; count on the stated rates, not on these rows.
# Every second line gives: Prx2 Sm inh, Anthrax LT inh
- COc1cc(C2N(c3cccc(Cl)c3)C(=O)C3CCCN32)cc(OC)c1OC (configuration not stated)
→ >57, 12.4%
- COc1ccc(-c2cc3ccccc3n2CC(O)CNC(CO)(CO)CO)cc1 (configuration not stated)
→ >57, -4.8%
- CC(C)NC(=O)N1CCCC2(CCN(C(=O)c3cccn3C)CC2)C1
→ >57, u
- Cc1ccc(-n2c(SCC3CCCCO3)nnc2-c2ccco2)cc1 (configuration not stated)
→ >57, x
- CS(=O)(=O)N1CCC(C(=O)Nc2c(F)cccc2F)CC1
→ >57, -11.2%
- CCCCC
→ x, -4.8%
- COc1ccc(OC)c(CNC(=O)C2CCCN(c3nc4ccccc4o3)C2)c1 (configuration not stated)
→ >57, x
- CCOC(=O)CCNC(=O)c1ccccc1Br
→ >57, u
- Cc1ccc(NC(=O)CN(C)C(=O)CN2C(=O)NC(C)(c3ccccc3)C2=O)cc1 (configuration not stated)
→ >57, -1.9%
- COC(=O)Cc1c(C)nc2nc(-c3ccccc3)[nH]n2c1=O
→ >57, u
- O=C(COC(=O)c1ccccc1O)Nc1ccc(OC(F)F)cc1
→ >57, 4.9%
- O=C(Cn1c(=O)[nH]n(-c2ccccc2)c1=O)N1CCCc2ccccc21
→ >57, 6.6%
- CC(=O)N[C@@H](c1ccccc1)[C@]1(C)C[C@H]1[C@@H](C)C(=O)Nc1ccc2ccccc2c1
→ >57, -24.6%
- CCOC(=O)N1CCN(C(=O)CSc2nnc(-c3cccc(Cl)c3)o2)CC1
→ >57, u
- [O-][n+]1c(CN2CCCCC2)nc2cccc3c2c1-c1ccccc1-3
→ >57, u
- COC(=O)c1ccccc1CCC(C)=O
→ >57, -10.9%
- COc1ccccc1NC(=O)CSC1=NC(=O)C(NC(C)=O)C(=O)N1 (configuration not stated)
→ >57, -8.5%
- Cc1nc(SCC(=O)Nn2c(-c3ccccc3)nc3ccccc3c2=O)n[nH]1
→ >57, 1.1%
- COc1ccc(-c2cc(C(F)(F)F)n3ncc(C(=O)NCc4ccco4)c3n2)cc1
→ x, 3.1%
- CCC(C(=O)NC1CCCC1)N(C(=O)Cn1nnc(-c2ccc(OC)c(OC)c2)n1)C1CCCCC1 (configuration not stated)
→ >57, 0.1%
- O=C(NC1(C(F)(F)F)NC(=O)N(Cc2ccco2)C1=O)c1cccs1 (configuration not stated)
→ >57, -20.0%
- O=C(Cn1c(NCCCO)nc2ccccc21)c1cccs1
→ >57, 7.3%
- NC(=O)NOC[C@@H]1NC(=O)NC1=O
→ >57, u
- CCOc1ccc(C(=O)Nc2cccc(C)n2)cc1
→ >57, u
- O=C(O)CP(=O)(O)c1ccc(Cl)cc1
→ x, -8.5%
- CC1Cn2c(nnc2C23CC4CC(CC(C4)C2)C3)S1 (configuration not stated)
→ >57, 7.7%
- N#CC1=C2SCN(Cc3ccccc3)CN2C(=O)CC1c1cccs1 (configuration not stated)
→ x, 4.8%
- COc1ccc(C(=O)C2CCN(C(=O)c3ccco3)CC2)cc1
→ >57, 9.0%
- Cc1cc(NC(=O)CSc2nnc(C3CC3)n2C)no1
→ >57, 1.8%
- COc1ccccc1S(=O)(=O)Cc1ccc(C(=O)NCc2cccnc2)o1
→ >57, -21.0%
- CC(=O)c1cccc(NC(=O)C2CCN(S(=O)(=O)c3c(C)n[nH]c3C)CC2)c1
→ >57, -11.9%
- CC1=C(C(=O)OC(C)C)C(/C=C/c2ccccc2)NC(=O)N1 (configuration not stated)
→ >57, -12.5%
- CS(=O)(=O)N1CCC(C(=O)NCC2CCCO2)CC1 (configuration not stated)
→ >57, 6.2%
- O=C(NCCCN1CCOCC1)c1coc2ccccc2c1=O
→ >57, 1.0%
- Cc1ccc(C2C(C(=O)c3cc4ccccc4o3)=C(O)C(=O)N2CCN2CCOCC2)o1 (configuration not stated)
→ >57, -21.2%
- O=c1c2cc(Cl)ccc2nc2ccc(N3CCCC3)nn12
→ >57, u
- O=C(Nc1ccccc1)N1CC[C@@]2(CCCNC2)C1
→ >57, 1.7%
- Cc1nc2cc(NC(=O)NCc3ccco3)ccc2o1
→ >57, 18.4%
- COc1ccc(C2C(C(=O)N3CCC4(CC3)OCCO4)CC(=O)N2c2ccc(OC)cc2)cc1 (configuration not stated)
→ >57, 1.1%
- CCc1cc(C(=O)Cc2cnn(-c3ccccc3)c2)c(O)cc1O
→ x, u
- CC1(C)C(c2cccs2)=NC(c2ccccc2)N1O (configuration not stated)
→ >57, 13.6%
- COc1cc(C(=O)Nc2nccs2)ccc1OCc1c(C)noc1C
→ >57, -10.2%
- CC1=CC(=O)OC1Cc1ccncc1 (configuration not stated)
→ >57, -7.1%
- COC(=O)CC1SCCNC1=O (configuration not stated)
→ >57, -6.7%
- CCOC(=O)C1CCN(CC(O)COc2ccc(C(=O)CC)cc2)CC1 (configuration not stated)
→ >57, 8.1%
- CCCn1c(SCC(N)=O)nnc1C(C)C
→ >57, u
- COC(=O)[C@@]1(Cc2ccc(OC)cc2)[C@H]2c3cc(C(=O)N(C)C)n(Cc4ccsc4Br)c3C[C@H]2CN1C(=O)c1ccccc1
→ >57, u
- Cc1ccccc1NC(=O)c1c(-c2ccccc2)noc1C
→ >57, 2.1%
- Cc1sc2nc(SCC(=O)NCc3ccco3)n(CCc3ccccc3)c(=O)c2c1C
→ >57, 2.6%
- CN[C@@H]1C[C@H](c2ccc(Cl)c(Cl)c2)c2ccccc21
→ >57, u
- CCc1ccc(N(CC(=O)Nc2ccc(OC)cc2OC)S(C)(=O)=O)cc1
→ >57, 14.9%
- COc1ncc2nc(-c3ccc(F)cc3)c(=O)n(Cc3cccs3)c2n1
→ >11.4, -12.9%
- COc1ccc(N2CCN(C(=O)CN3C(=O)c4ccccc4S3(=O)=O)CC2)cc1
→ >57, 15.3%
- COc1cccc(-c2nc(=S)c3c(n2CCCO)CCCC3)c1
→ >57, 1.5%
- CC1CCN(S(=O)(=O)c2ccc3c(c2)oc(=O)n3CC(=O)N2c3ccccc3CC2C)CC1 (configuration not stated)
→ >57, u
- O=C(c1cc2ccccc2oc1=O)N1CCN(Cc2ccc3c(c2)OCO3)CC1
→ >57, -0.1%
- CCCCC(=O)Nc1ccc(NC(=O)CC)cc1OC
→ >57, -2.9%
- COCCCn1c(Cc2csc(Nc3cccc(Cl)c3)n2)nnc1SCC(=O)OC
→ >57, 3.9%
- Cn1c(NCc2cccc(Br)c2)nc2ccccc21
→ >57, 13.7%
- COCCNC(=O)COC(=O)c1nsc(Cl)c1Cl
→ >57, 8.8%

# Next section (7 carried over from the part before).
# Every second line gives: Prx2 Sm inh, Anthrax LT inh
- COc1cccc(-c2nc(=S)c3c(n2CCCO)CCCC3)c1
→ >57, 1.5%
- CC1CCN(S(=O)(=O)c2ccc3c(c2)oc(=O)n3CC(=O)N2c3ccccc3CC2C)CC1 (configuration not stated)
→ >57, u
- O=C(c1cc2ccccc2oc1=O)N1CCN(Cc2ccc3c(c2)OCO3)CC1
→ >57, -0.1%
- CCCCC(=O)Nc1ccc(NC(=O)CC)cc1OC
→ >57, -2.9%
- COCCCn1c(Cc2csc(Nc3cccc(Cl)c3)n2)nnc1SCC(=O)OC
→ >57, 3.9%
- Cn1c(NCc2cccc(Br)c2)nc2ccccc21
→ >57, 13.7%
- COCCNC(=O)COC(=O)c1nsc(Cl)c1Cl
→ >57, 8.8%
- Cc1ccc(C2c3c(oc4ccccc4c3=O)C(=O)N2c2nnc(C)s2)o1 (configuration not stated)
→ x, 5.1%
- CCn1nnc(NC(=O)c2ccccc2Br)n1
→ >57, -10.7%
- CC(=O)OCCC(C)C
→ x, u
- O=c1c2cccnc2[nH]c(=S)n1CCC1=CCCCC1
→ >57, 15.3%
- CC1=C(C(N)=O)C(c2ccccn2)n2nc(-c3ccccc3Cl)nc2N1 (configuration not stated)
→ >57, -1.8%
- Cc1cccc(C(C)C)c1-n1nnnc1-c1ccccc1
→ x, u
- C=CCn1c(-c2cc(OC)c(OC)c(OC)c2)n[nH]c1=S
→ >57, -10.4%
- N#CCCN1CCN(S(=O)(=O)c2ccc(S(=O)(=O)NC3CCCCC3)cc2)CC1
→ >57, 9.1%
- CC(C)OCCCn1c(-c2ccco2)nc2nc3ccccc3nc21
→ x, u
- CC(=O)c1c(N2CCN(c3cccc(Cl)c3)CC2)nc(=S)n(-c2ccccc2)c1C
→ x, -6.0%
- COCCn1c(C)cc(C(=O)CSc2nnc(-c3cccnc3)n2-c2ccccc2F)c1C
→ x, -8.7%
- NS(=O)(=O)c1ccc(N=Nc2nc3[nH]cnc(=S)c3[nH]2)cc1
→ >57, -11.1%[8 µM]
- Cc1ccc2c(c1)N(CC(=O)O)C(=O)CO2
→ >57, u
- O=C(O)c1ccc(OC2CSC2)cc1
→ x, 6.4%
- COc1cc(NC(=O)CSc2nnnn2-c2ccccc2)cc(OC)c1OC
→ >57, 6.0%
- Cc1ccc(/C(O)=C2\C(=O)C(=O)N(c3cc(C)on3)C2c2cccc(Cl)c2)cc1 (configuration not stated)
→ >57, x
- N#CC1=C2SCN(Cc3ccco3)CN2C(=O)CC1c1cccc2ccccc12 (configuration not stated)
→ >57, u
- COc1ccc(CCNC(=O)C2CCN(Cc3nc(-c4ccc(Cl)cc4)oc3C)CC2)cc1OC
→ >57, 1.6%
- O=C(Nc1nc(-c2ccccc2)cs1)C1CCCCN1S(=O)(=O)c1ccccc1 (configuration not stated)
→ >57, u
- CCN(CC)Cc1c[nH]c2ccccc12
→ x, -7.4%
- O=C(CC1NCCNC1=O)OCc1ccccc1 (configuration not stated)
→ >57, -4.4%
- O=C(CSC1=Nc2ccccc2C2=NC(c3ccccc3)C(=O)N12)NCC1CCCO1 (configuration not stated)
→ >57, 1.0%
- COc1ccc(NC(=O)CN2CCC(n3c(C)nc4cc(F)ccc43)CC2)c(OC)c1
→ >57, 8.2%
- COc1cc(C(=O)NCCc2cn3ccccc3n2)cc(OC)c1OC
→ >57, 6.0%
- CCn1c(SCC(=O)c2ccc(Cl)cc2)nnc1-c1ccoc1C
→ >57, -6.3%
- CCCCNC(=O)NCC(=O)Nc1ccc(F)c(F)c1
→ >57, 2.0%
- c1cncc(Nc2nc(-c3cccs3)cs2)c1
→ >57, u
- O=c1c2ccccc2oc2nc(-c3ccco3)n(CCc3ccccc3)c(=O)c12
→ >57, x
- Cc1cc(C(=O)NCCN2CCN(c3cccc(Cl)c3)CC2)n(-c2ccccc2)n1
→ >57, u
- CC(=O)NC(=O)NC1OC(=O)C(Cl)=C1Cl (configuration not stated)
→ u, -2.4%
- COc1ccc(CCNC(=O)COC(=O)c2cnc(C)cn2)cc1OC
→ >57, -11.1%
- COc1cc(OC)nc(NC(=O)CSc2nnc(-c3ccccc3)n2C2CCCCC2)n1
→ >57, -1.9%
- CCCCc1c(O)nc(SCC(=O)Nc2ccc3c(c2)CCC3)[nH]c1=O
→ >57, -3.0%
- CCOc1cc(C2C3=C(CCCC3=O)NC3=C2C(=O)CCC3)cc(Cl)c1O
→ >57, -1.7%
- O=C(CCc1ccc(S(=O)(=O)N2CCCCC2)cc1)c1nnc(-c2ccccc2)o1
→ >57, -21.7%
- CCc1ccccc1NC(=O)c1ccoc1C
→ u, -1.9%
- COC(=O)[C@@]1(Cc2ccc(F)cc2)[C@H]2c3cc(C(=O)N4CCCC4)n(Cc4cc(C)n(C)n4)c3C[C@H]2CN1C(=O)c1ccccc1
→ >57, u
- COc1ccc(C2C(C(=O)NCC3CCCO3)c3cc(OC)c(OC)cc3C(=O)N2C)cc1OC (configuration not stated)
→ >57, -3.3%
- Cc1ccc(C)c(N2CCN(C(=O)CCS(=O)(=O)c3cccc4nonc34)CC2)c1
→ >57, -18.3%
- COc1ccc(NC(=O)C2CCCN2S(=O)(=O)c2ccc3c(c2)CCC(=O)N3)c(OC)c1 (configuration not stated)
→ >57, -1.9%
- CC(=O)Nc1cccc(NC(=O)C2CCCN2C(=O)Nc2cccc(C)c2)c1 (configuration not stated)
→ >57, -1.6%
- O=C(Nc1ccccc1)N1CCn2c1nc1ccccc12
→ >57, -27.2%
- Cn1c(=O)c2cnc(N3CCOCC3)nc2n(C)c1=O
→ >57, 0.8%
- CC1=C(C(=O)OCC2CCCO2)C(c2cccc(O)c2)NC(=O)N1 (configuration not stated)
→ x, 1.9%
- COC(=O)COc1cccc(NC(=O)c2cccs2)c1
→ >57, 28.1%
- Cc1cc(N2CCN(S(=O)(=O)c3ccccc3)CC2)c2ccccc2n1
→ x, u
- CCC(=O)N/C(=N/c1nc(C)cc(C)n1)Nc1cccc(OC)c1
→ x, -16.9%
- CC(C)C[C@H](NC(=O)[C@@H](O)[C@@H](N)Cc1ccccc1)C(=O)O
→ >57&>57, u
- COc1cc(OC)c(OC)cc1CNCCc1ccc(OC)c(OC)c1
→ >57, -4.3%
- Cc1cccc(/C=C\c2ccccc2)n1
→ >57&>57, -20.2%&-0.7%
- Cc1ccc(NCc2nnc(SCc3ccc(C#N)cc3)n2Cc2ccco2)c(C)c1
→ >57, -5.5%
- COc1ccc(Oc2ncc3nc(C)c(=O)n(Cc4cccs4)c3n2)cc1
→ >57, -11.0%
- Cc1cc(C)nc(N(C#N)Cc2ccccc2)n1
→ >57, -13.2%
- CC(=O)c1sc(NC(=O)C2(F)C(F)(F)C(F)(F)C(F)(F)C(F)(F)C2(F)F)nc1C
→ >57, x
- CSCCC(NC(=O)c1occc1C)C(=O)O (configuration not stated)
→ >57, -8.5%

# Source: PubChem (National Center for Advancing Translational Sciences (NCATS))
